Vaccinia Venus: inhibitors of vaccinia virus (Venus reporter); Vaccinia virus Venus reporter expression, fluorescence; Potency, µM (top dose mostly 36.5 µM), inactives show at the top dose activity change, negative = inhibition, usual class: inhibitors; 330,000 compounds, 0.46% hits; AID 720580; active means well fitted inhibition curve with a large enough effect; inconclusive means small, poorly fitted or top-dose-only effect; inactive means no such curve, though single readings can be large or run the other way; tested in A549 cells; further: nearly all actives have a fitted effect of over 30% in size; inactives centre near -10
VACV mCherry inh: inhibitors of vaccinia virus infection (mCherry reporter signal); Potency, µM (highest dose often 36.5 µM), inactives show at the highest dose activity change, negative = inhibition, actives largely listed as inhibitors; 310,000 compounds, 0.63% hits; Vaccinia virus mCherry reporter infection, fluorescence; about a quarter of the inactives have no number; active = well fitted inhibition curve with a large enough effect; inconclusive = small, poorly fitted or top-dose-only effect; inactive = no such curve, though single readings can be large or run the other way; tested in A549 cells; further: nearly all actives have a fitted effect of over 35% in size; inactives centre near -10
Numbers without * were called inactive; i = inactive; ? = inconclusive; / = not tested or not shown; [ ] = another dose, or the depositor's remark. On the % scale 0 is the no-effect control and ±100 the full control effect; potency means the concentration at half of the fitted maximal effect.

SMILES	Vaccinia Venus	VACV mCherry inh
CC(=O)N1Cc2[nH]c3ccccc3c2CC1C(=O)O (configuration not stated)	-14%	-15%
c1ccc2c(NC3CCCC3)nnc(NC3CCCC3)c2c1	?	?
O=C(CCCc1nc2ccccc2s1)Nc1nccs1	-11%	-19%
O=C1C(Cl)=C(Nc2cccc(O)c2)C(=O)N1Cc1ccccc1	?	?
COc1ccc(N2CCOCC2)c(NC(=O)c2ccc3c(c2)OCO3)c1	-3%	-19%
O=C(O)c1ccc(-c2nc(-c3ccccc3Cl)cs2)cc1	-2%	0%
CCC1(c2ccc(F)cc2)NC(=O)N(CC(=O)N2CCN(S(=O)(=O)c3ccc(C)cc3)CC2)C1=O (configuration not stated)	-18%	-23%
CS(=O)(=O)N(CC(=O)NCc1ccccc1Cl)Cc1ccccc1	-21%	-29%
C#CCNC(=O)C[C@@H]1C[C@@]2(C(=O)OC)CCCCC=C2N(CCc2ccc(OC)c(OC)c2)C1=O	-1%	-2%
N#Cc1ccccc1S(=O)(=O)N1CCCC(c2nc3c(nnn3Cc3cccc(Cl)c3)c(=O)[nH]2)C1 (configuration not stated)	-5%	-8%
CCOC(=O)c1ccc(NC(=O)C2(c3ccc(OC)cc3)CCOCC2)cc1	-27%	/
O=C(Nc1cccc(N=Cc2cc(Br)cc(Br)c2O)c1)c1ccco1	-14%	i
CC(=Nc1ccccc1N)c1c(O)n(C)c(=O)[nH]c1=O	-4%	-16%
Cc1ccc(C(=O)Nc2ccc3c(c2)C(=O)N(CC2CCCO2)C3=O)cc1 (configuration not stated)	-16%	-19%
COC[C@H]1CCCN1c1ccc2c(c1)O[C@H](COCc1ccccc1)CN([C@@H](C)c1ccccc1)S2(=O)=O	9%	4%
COc1ccc(C)cc1/C=C/C(=O)N1CCN(S(=O)(=O)c2cccs2)CC1	-20%	i
O=C1[C@H](CC[C@H](O)c2ccc(F)cc2)[C@@H](c2ccc(O)cc2)N1c1ccc(F)cc1	-7%	-11%
CCN(/N=C/C=C/c1ccccc1)c1cc(=O)n(C)c(=O)[nH]1	-1%	i
Cc1ccc(-c2nn(-c3cc(Cl)ccc3[N+](=O)[O-])c(=O)c3ccccc23)cc1C	-18%	-28%
Cc1cc2nc(C(C)(C)C)c(CC3CCCCC3)n2c(C)c1Br	-1%	i
CC(NC(=O)c1ccccc1)c1ccc(F)cc1 (configuration not stated)	-6%	-11%
NC(=O)c1ncc(C(F)(F)F)cc1Oc1ccc(F)cc1	-10%	/
Cn1c(=O)c2c(nc(CN3CCN(c4ccccc4F)CC3)n2Cc2ccccc2F)n(C)c1=O	-22%	-23%
CN(C)CCCn1c2c(c(SCC(=O)Nc3ccc4c(c3)OCCO4)nc1=O)CCC2	-11%	-24%
Cn1c(=O)n(CCc2ccccc2)c(=O)c2c1nc1n2CCCN1Cc1ccccc1	-7%	/
COc1ccc(C2CC(c3ccccc3)=NN2C(=O)COC(=O)c2cccnc2)cc1 (configuration not stated)	-10%	-20%
Cc1ccc2occ(CC(=O)Nc3ccc(S(=O)(=O)N4CCCC(C)C4)cc3)c2c1 (configuration not stated)	-28%	-19%
CCS(=O)(=O)N1CCC(C(=O)N2CCc3ccccc3C2)CC1	-15%	-3%
CCC(C)NC(=O)c1ccc2nc(-c3ccco3)c(-c3ccco3)nc2c1 (configuration not stated)	-15%	3%
CCOc1ccc2[nH]c(=O)c(CN(Cc3ccc(F)cc3)C(=O)N3CCCC3)cc2c1	-14%	i
Cc1nnc(-c2cnn(C)c2N)n1CCCN1CCOCC1	-7%	-14%
C#CCOCCOCCOCCNc1nc(N2CCN(C(=O)CCCCCCCCCCNC(=O)[C@H](CCCCN)n3cc(CCO)nn3)CC2)nc(N2CCN(C(=O)CCCCCCCCCCNC(=O)[C@H](CCCCN)n3cc(C[C@@H](C)CC)nn3)CC2)n1	10µM*	-27%
CCOP(=O)(OCC)C(NC(=O)c1ccc(Cl)cc1)=C(Cl)Cl	-13%	-4%
CCOC(=O)c1cc(-c2ccccc2C)n(Cc2cc(C)no2)n1	-3%	-13%
O=C(N/N=C/c1ccc(COc2ccc(Br)cc2)o1)c1ccco1	-14%	-8%
Cc1ccc(S(=O)(=O)NCCC(=O)Nc2ccc(Cl)c(Cl)c2)cc1	?	-14%
Cc1cc(C)nc(-c2cccc3c2OC(CNC(=O)C2CCOC2)C3)n1 (configuration not stated)	-4%	-8%
COC[C@@H]1CCCN1c1ccc2c(c1)O[C@H](COCc1ccccc1)CN([C@@H](C)c1ccccc1)S2(=O)=O	1%	-13%
COc1ccc(-c2cc3c(=O)n(CC(=O)NCc4ccc(Cl)cc4)ncn3n2)cc1	-16%	i
CCN1CCN(S(=O)(=O)c2ccc(Cl)c(C(=O)N(CC)Cc3ccccc3)c2)CC1	-12%	-22%
CN(C1=C(NC(=O)c2ccc(Cl)cc2)C(=O)c2ccccc2C1=O)c1ccccc1	?	-1%
CCN(c1cccc(C)c1)S(=O)(=O)c1cccc2nsnc12	-4%	-15%
Cc1cccc(N2CCN(c3c(CN4CCCC4)c(=O)oc4ccccc34)CC2)c1C	-22%	-5%
Cc1ccccc1Nc1nc(N)nc(CN2CCN(Cc3ccc4c(c3)OCO4)CC2)n1	-27%	-15%
O=c1nc(Nc2ccccc2)sc2ccc([N+](=O)[O-])cc12	-10%	-14%
Cc1ccc(C(=O)N2CCC(C(=O)NC3CCCCCC3)CC2)cc1	-10%	-9%
O=C(CNC(=O)C1CCCCC1)Nc1cc(Cl)ccc1Cl	-16%	-12%
Cc1ccc(Sc2ncccc2C(=O)N(C)Cc2cccs2)c(C)c1	-9%	-5%
COc1ccccc1CNC(=O)c1cn(C)c2ccc(S(=O)(=O)N3CCC(C)CC3)cc2c1=O	10%	-6%
CCOc1ccc(/C=C/C(=O)c2ccccc2)cc1	-13%	i

(next part)
SMILES	Vaccinia Venus	VACV mCherry inh
O=C(COc1cccc2cccnc12)Nc1ccccc1	4%	i
O=C(OCCO)c1c(C2=CCCCC2)oc2c1C(OCCO)CCC2 (configuration not stated)	5%	20%
Nc1c(S(=O)(=O)c2ccccc2)c2nc3ccccc3nc2n1C1CC1	-7%	3%
CC(=O)N/C(=C\c1ccccc1)C(=O)OCC(=O)c1ccc(F)cc1	-8%	-11%
CCCCN(C(=O)CCN1C(=O)C2CC=CCC2C1=O)c1c(N)n(CCCC)c(=O)[nH]c1=O (configuration not stated)	3%	-13%
O=C(/C=C1\NC2(CCCC2)Cc2ccccc21)N1CCOCC1	-18%	/
Cc1ccc(C)c(N2CCN(C(=O)Cn3nc(C)c4sc5ccccc5c4c3=O)CC2)c1	-2%	-6%
O=C(COc1ccccc1)NNC(=O)COc1ccc([N+](=O)[O-])cc1	5%	-9%
CN(Cc1ccccc1)CC1CCCN(CCc2ccccc2F)C1 (configuration not stated)	4%	-12%
Cc1ccc(C(=O)Nc2ccc(S(=O)(=O)N3CCC(c4nc5ccccc5s4)CC3)cc2)cc1	?	?

Laid out differently: four of the compounds above.
Cc1ccc(C)c(N2CCN(C(=O)Cn3nc(C)c4sc5ccccc5c4c3=O)CC2)c1
- Vaccinia Venus: -2%
- VACV mCherry inh: -6%
O=C(COc1ccccc1)NNC(=O)COc1ccc([N+](=O)[O-])cc1
- Vaccinia Venus: 5%
- VACV mCherry inh: -9%
CN(Cc1ccccc1)CC1CCCN(CCc2ccccc2F)C1 (configuration not stated)
- Vaccinia Venus: 4%
- VACV mCherry inh: -12%
Cc1ccc(C(=O)Nc2ccc(S(=O)(=O)N3CCC(c4nc5ccccc5s4)CC3)cc2)cc1
- Vaccinia Venus: ?
- VACV mCherry inh: ?

The results go on.
SMILES	Vaccinia Venus	VACV mCherry inh
CCOc1ccc(-n2ccn(CC(=O)NCCc3ccccc3)c(=O)c2=O)cc1	0%	-7%
CC(=O)Nc1sc(C)c(C)c1C(=O)OCC(=O)N(CC(C)C)c1c(N)n(Cc2ccccc2)c(=O)[nH]c1=O	0%	14%
O=C(Nc1c(-c2ccccc2)nc2ccccn12)c1ccccc1	-13%	-20%
COc1ccc2[nH]cc(C(=O)CN3CCCC(C)C3)c2c1 (configuration not stated)	3%	-8%
CC(C)[C@H](NS(=O)(=O)c1ccccc1)C(=O)OCC(=O)NC(=O)c1cccn1C	-8%	-16%
CCC1CCCCN1C(=S)NC(=O)c1ccc([N+](=O)[O-])cc1 (configuration not stated)	-14%	-7%
O=C(CC(=O)c1ccccc1)Nc1ccccc1	-11%[7.34 µM]	0%[7.34 µM]
Cn1cccc1C(=O)NC(=O)COC(=O)C12CC3CC(CC(O)(C3)C1)C2	2%	/
O=C(NC(=S)NCc1ccccc1)c1cccnc1	-11%	i
CC(=O)NCCC(=O)Nc1sc2c(c1-c1nc3ccccc3[nH]1)CCCC2	-23%	-15%[1.46 µM]
COc1ccc(-n2ccn(Cc3ccccc3C)c(=O)c2=O)cc1	0%	-9%
CCCCCCc1ccc(N2C[C@H](CCCCC)[C@@H](CC(=O)NCc3ccccc3)C2=O)cc1	?	-12%
CC(=O)c1ccc(NC(=O)c2sc3nc4c(cc3c2N)N2CCC4CC2)cc1	-6%	-12%
CCC(C)NC(=O)CNC(=S)N(CCCN1CCOCC1)Cc1cccs1 (configuration not stated)	-14%	-17%
O=C(O)c1cccc(S(=O)(=O)Nc2cccc3ccccc23)c1	9%	-7%
COc1ccc(CN2C[C@H](O)COC[C@@H]3O[C@H](CC(=O)NCc4ccncn4)CC[C@H]32)cc1	-9%	-11%
COc1cc(OC)cc(-c2c(-c3ccc(F)cc3)c3cc(-c4cccc5[nH]ccc45)ccc3n2C)c1	-10%	-4%
Cc1ccc(CSc2cn(CCNC(=O)c3cccs3)c3ccccc23)cc1	-8%	-12%
COc1cccc(C2C(C(C)=O)=C(O)C(=O)N2CCc2c[nH]c3ccccc23)c1 (configuration not stated)	0%	0%
CNC(=O)c1ccc(OC2CSC2)cc1	-2%	-13%
CCCOc1ccc(-c2nnn(CC(=O)N3CCC(C)CC3)n2)cc1	-13%	i
CCOC(=O)c1c(-c2ccco2)csc1NC(=O)CSc1nnc(N)s1	5%	-17%
C[C@H](OC(=O)n1ccnc1)[C@@H]1O[C@@]2(C)CCC[C@@H]1O2	-11%	i
CC(=O)c1ccc(N2CCN(C(=O)Cn3cnc(S(=O)(=O)N4CCCCC4)c3)CC2)cc1	1%[7.34 µM]	-13%[7.34 µM]
COc1ccc(NC(=O)CCN2CCCC(C)C2)cc1 (configuration not stated)	5%	i
COc1ccc(/C=N\NC(=O)c2ccccc2OC)cc1COc1ccccc1C	-17%	-18%
Cc1ccc(Cl)cc1NC(=O)NCc1cccnc1	-9%	-14%
COc1nc(-c2ccccc2)nnc1-c1ccccc1	-2%	-14%
Cc1c(Cl)cccc1NC(=O)CCCN1C(=O)CCC1=O	-17%	-15%
COC(=O)C[C@@H]1C[C@@H]2c3cc(NC(=O)NC4CCCCC4)ccc3O[C@@H]2[C@H](CO)O1	-16%	-9%
CC(=O)Nc1ccc(S(=O)(=O)N2CCN(C(=O)c3ncoc3-c3cccc(C)c3)CC2)cc1	-7%	-12%
C/C(=N\N1CCCCCC1)c1c(O)n(C2CCCCC2)c(=O)[nH]c1=O	-8%[7.34 µM]	-2%[7.34 µM]
CC(=O)N1CCN(CCS(=O)(=O)c2ccc(Br)cc2)CC1	?	18µM*
CCOC(=O)C1CCN(S(=O)(=O)c2c[nH]c(=O)[nH]c2=O)CC1	-7%	-12%
CC(C)[C@H](NC(=O)c1ccco1)C(=O)N(C)Cc1c(F)cccc1Cl	-6%	-16%
C#CC(=O)N(c1ccc(OC)c(OC)c1)C(C(=O)NC1CCCC1)c1cccs1 (configuration not stated)	?	?
Cc1cc(Br)ccc1NC(=O)C1CSC2(C)CCC(=O)N12 (configuration not stated)	-19%	-1%
CC(C)C[C@@H](C(=O)NCC1CCCO1)N1C(=O)N2CCc3c([nH]c4ccccc34)[C@@]2(C)C1=O (some centres not stated)	3%	-7%
O=C(Cn1c(-c2cncs2)nc2ccccc21)NC1CCCC1	-3%	-3%
COc1ccc(C(C(=O)NC2CCCC2)N(CCO)C(=O)Cn2nnc(-c3ccc(C)o3)n2)cc1 (configuration not stated)	0%	i
CC1(C)NC(=O)N(CC(=O)Nc2ccc(-n3cnnn3)cc2)C1=O	13%	-22%
Cc1ccc(NC(=O)CCS(=O)(=O)c2cccc3nonc23)c(Br)c1	-20%	-24%
Cn1nc(-c2ccccc2)c(C(=O)Nc2ccc(Cl)cc2)c1Cl	0%	-9%
O=C(c1cc2c(s1)CCCC2)N1CCN(S(=O)(=O)c2ccccc2)CC1	-9%	i
Cc1ccc(-c2c(C#N)c(N)n(-c3ccccc3C)c(=O)c2C#N)cc1	-10%	11%
Cc1ccc(S(=O)(=O)NCC(=O)OCC(=O)N(CCC#N)c2ccccc2)cc1	-2%	-16%
COP(=O)(OC)c1nc(-c2ccc(C)cc2)oc1N1CCCCC1	-27%	-8%
CC(=O)Nc1cccc(OCC(=O)Nc2ccc(F)cc2)c1	-4%	-10%
COCCn1c(SCC(=O)Nc2ccc(S(N)(=O)=O)cc2)nc2ccccc21	-13%	-20%[1.46 µM]
